Screening data: PubChem, NMMLSC
Autofluor counter = flagged as autofluorescent in microsphere protease counterscreen. compound autofluorescence counterscreen, microsphere flow cytometry; stronger effect = higher value. fluorescence intensity (no concentration beside the values). 360,000 tested, 3.1% active. AID 624483;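 active means at least 3 SD above the mean of all compounds, about 16000 in these data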;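 further: 100 nL of 1 mM stock went into each well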
Numbers without * were called inactive.

A first look, 2 compounds:
SMILES	Autofluor counter
CC(=O)CC1c2ccccc2C=C(c2ccsc2)N1c1ccc(-c2cccs2)cc1 (stereo unspecified)	5161
CCOC(=O)[C@]12CCCC=C1N(Cc1ccc(Cl)cc1Cl)C(=O)[C@H](CC(=O)NCCCN1CCCC1=O)C2	6271

All compounds of this part, from the first entry:
SMILES	Autofluor counter
CC(=O)CC1c2ccccc2C=C(c2ccsc2)N1c1ccc(-c2cccs2)cc1 (stereo unspecified)	5161
CCOC(=O)[C@]12CCCC=C1N(Cc1ccc(Cl)cc1Cl)C(=O)[C@H](CC(=O)NCCCN1CCCC1=O)C2	6271
CC(=O)Nc1ccc(C(=O)NNC(=O)c2csc(N3CCOCC3)n2)cc1	2871
Cc1ccc([C@H]2N[C@]3(CCCN(Cc4ccc(Cl)cc4)C3=O)[C@H]3C(=O)N(Cc4ccccc4)C(=O)[C@@H]23)cc1	3814
FC(F)(F)c1cc(Cl)c2nc(-c3ccco3)c(Cc3ccccc3C(F)(F)F)n2c1	4958
Cc1cccc(C)c1C(O)c1ncc(-c2cccc(C(F)(F)F)c2)[nH]1 (stereo unspecified)	3965
O=S1(=O)CC(N2CCN(Cc3ccccc3F)CC2)CN1Cc1cn(Cc2ccccc2)nn1 (stereo unspecified)	5593
CCCCCCn1c(=O)n2n(c1=O)C[C@]1(OC(=O)NC3CC3)CN(S(=O)(=O)c3ccc(C)cc3)C[C@]1(O)C2	3113
CCN(CC)C(=O)C1=C(C)N(CCCN2CCCC2=O)C(=O)C(CC(=O)NCC2CCCCC2)C1 (stereo unspecified)	2995
CC1(C(=O)NS(=O)(=O)Cc2ccccc2)CCN1C(=O)CCc1ccccc1 (stereo unspecified)	3523
CCOC(=O)N(C)c1c(CC)nc2c(OCC(=O)C(C)(C)C)cccn12	3734
c1ccc(CN2Cc3ccccc3-n3nncc3C2)cc1	3452
CC(=O)Nc1ccc(CN(C)c2c(C)nc3ccc(C(=O)N4CCN(C(=O)c5ccco5)CC4)cn23)cc1	3859
COc1ccc(CC(N)c2csc(NC(=O)Nc3ccc(C(C)C)cc3)n2)cc1 (stereo unspecified)	3478
CC1C(=O)N(Cc2cn(CC3CCCCC3)nn2)CCS(=O)(=O)N1Cc1ccc(-c2ccccc2)cc1 (stereo unspecified)	3860
Nc1cc(Br)cc2c1[nH]c(=O)c1ccccc12	3933
CCCC(=O)N1CCCC(c2cc(C(=O)NCc3ccc(F)cc3)no2)C1 (stereo unspecified)	3727
CCOC(=O)c1c(NC(=O)COC(=O)c2ccc(S(=O)(=O)C(F)F)cc2)sc(C(=O)N(C)C)c1C	3179
COc1ccc(S(=O)(=O)NC(=O)C2(C)CCN2C(=O)CC2CCCCC2)cc1OC (stereo unspecified)	3691
CCCCn1nnnc1C(CCSC)N1CCC(n2c(=O)[nH]c3ccccc32)CC1 (stereo unspecified)	4146
CC[N+](CC)=N/N=C1\C=CC[N+]([O-])=C1	6018
COc1ccc(C(c2nnnn2-c2ccc3c(c2)OCCO3)N2CCC(n3c(=O)[nH]c4ccccc43)CC2)cc1 (stereo unspecified)	6830
Cn1c2nc3ccccc3c-2nc2ccccc21	3358
CCCCCCCCN1C(=O)[C@H](CC(=O)NCCCCc2ccccc2)C[C@@]2(C(=O)OC)CCCCC=C12	6159
CC(C)CNC(=O)C1(C)CCCN1C(=O)c1ccc2ccccc2n1 (stereo unspecified)	3101

Part of the list above in order of molar mass, largest number first.
SMILES	Autofluor counter
CC1C(=O)N(Cc2cn(CC3CCCCC3)nn2)CCS(=O)(=O)N1Cc1ccc(-c2ccccc2)cc1 (stereo unspecified)	3860
O=S1(=O)CC(N2CCN(Cc3ccccc3F)CC2)CN1Cc1cn(Cc2ccccc2)nn1 (stereo unspecified)	5593
FC(F)(F)c1cc(Cl)c2nc(-c3ccco3)c(Cc3ccccc3C(F)(F)F)n2c1	4958
COc1ccc(CC(N)c2csc(NC(=O)Nc3ccc(C(C)C)cc3)n2)cc1 (stereo unspecified)	3478
CCOC(=O)N(C)c1c(CC)nc2c(OCC(=O)C(C)(C)C)cccn12	3734
Cc1cccc(C)c1C(O)c1ncc(-c2cccc(C(F)(F)F)c2)[nH]1 (stereo unspecified)	3965

Additional compounds:
SMILES	Autofluor counter
COCCNC(=O)C1(C)CCCN(C(=O)c2ccccc2OC)C1 (stereo unspecified)	3944
COC(=O)[C@H]1C[C@@]2(O)CN(S(=O)(=O)c3ccc(C)cc3)C[C@@]2(OC(=O)NCc2ccccc2F)C[C@H]1C(=O)OC	3316
COC(=O)[C@]12CCCCC=C1N(Cc1ccc(Cl)cc1Cl)C(=O)[C@H](CC(=O)N1CCSCC1)C2	5365
Cn1nc(C(C)(C)C)cc1NC(=O)C1(C)CCN1C(=O)CCc1ccccc1 (stereo unspecified)	3012
COC(=O)c1ccc(C(=O)N2CCCC(C)(C(=O)NS(=O)(=O)C3CC3)C2)cc1 (stereo unspecified)	4003
CN1C(=O)CON=C1c1cccc2ccccc12	5788
CCCCn1nnnc1C(C1CC1)N1CCC(n2c(=O)[nH]c3ccccc32)CC1 (stereo unspecified)	4663
Cc1ccsc1C(=O)N1CCC1(C)C(=O)Nc1cccc(C#N)c1 (stereo unspecified)	3644
COc1cc(-c2nnc(COC(=O)c3ccc([N+](=O)[O-])o3)o2)cc(OC)c1OC	4264
CC(C)c1ccc(NC(=O)Nc2nc(C(N)c3ccccc3)cs2)cc1 (stereo unspecified)	2782
CCCCN1C(=O)C(CC(=O)NCc2ccco2)CC(C(=O)N2CCOCC2)=C1C (stereo unspecified)	3583
COc1ccc(C(=O)OCC(=O)NC2CC2)cc1	4158
Cc1ccn2c(C(C)O)nnc2c1 (stereo unspecified)	3540
COc1ccc(NC(=O)c2cccc3c(-c4ccc(OC)cc4C)coc23)cc1	3773
Cc1cc(Br)cn2c(Cc3ccccc3)c(-c3ccc(F)cc3)nc12	6085
COc1ccc(S(=O)(=O)N(C)C[C@@H]2OCCCC[C@@H](C)Oc3ccc(NS(=O)(=O)c4cccs4)cc3C(=O)N([C@H](C)CO)C[C@@H]2C)cc1	3808
CC(=O)Nc1cccc(-c2cc(NC(C)=O)c3ncc(-c4cccc(C(C)=O)c4)n3c2)c1	4212
CC1(C(=O)NS(=O)(=O)c2ccccc2)CCN1C(=O)C1(c2ccc(Cl)cc2)CCC1 (stereo unspecified)	2755
CC(=O)c1ccc(OCc2c(-c3ccccc3)nnn2CC(=O)NS(=O)(=O)c2ccc(C)cc2)cc1	2596
Cc1ccc(F)c(S(=O)(=O)NC(=O)C2(C)CCN2C(=O)Cc2cc(F)ccc2F)c1 (stereo unspecified)	3710
C[C@@H]1CCCCO[C@H](CN(C)C(=O)Nc2ccc3c(c2)OCO3)[C@H](C)CN([C@@H](C)CO)C(=O)c2cc(NS(=O)(=O)c3ccc(Cl)cc3)ccc2O1	3848
O=C(NCC1CCOCC1)C1Cc2c(-c3ccccc3Oc3ccccc3)ccnc2O1 (stereo unspecified)	3948
COCCNC(=O)C1CCCN(C(=O)c2cc(-c3ccccc3)cs2)CC1 (stereo unspecified)	3752
O=C1NC[C@@H](CCCCN2C[C@H](Cc3ccccc3)N(CC3CCCCC3)C(=O)C2=O)N(CCc2ccc(O)cc2)C1=O	5237
OC(c1ccccc1)(c1nc(-c2cccc3cccnc23)cs1)C(F)(F)F (stereo unspecified)	3926

Next section
SMILES	Autofluor counter
CC(=O)Nc1cc(-c2ccc(CO)cc2)cn2c(-c3cccc(C(F)(F)F)c3)cnc12	3831
O=C(NCCCN1CCCC1=O)C(=O)NCC1OCCN1S(=O)(=O)c1cc(F)ccc1F (stereo unspecified)	3831
COc1ccc(Cl)cc1-c1cc(C(=O)Nc2ccc(Br)cc2)[nH]n1	4236
O=C(NCc1cccc(Cl)c1)c1ccc(-c2cccnc2)c2ccoc12	3428
CCCCCCN1CCN(C2CN(Cc3cn(CCCC(=O)OC)nn3)S(=O)(=O)C2)CC1 (stereo unspecified)	4319
N#Cc1cccc(N2[C@@H](Cc3cc4ccccc4n3Cc3ccccc3)COC[C@H]2Cc2ccc3ccccc3c2)c1	3576
CCOC(=O)C1=C(C)OC(=Cc2ccc(OC)cc2)C1=O	3735
COc1cc(-c2coc3c(C(=O)NC4CCCCC4)cccc23)ccc1O	3970
Cc1ccc(-c2nc3ccc(C)cn3c2Cc2cccc(F)c2)cc1	6430
O=C(Nc1ccc2c(c1)OCCO2)C(c1ccnc2ccccc12)N1CCN(c2ccc(C(F)(F)F)cn2)CC1 (stereo unspecified)	5741
O=C(Nc1nc(OCC(F)(F)F)cnc1/C=C\c1ccccc1)c1ccccc1	3980
CC(C)C[C@H]1CNC(=S)N1C[C@H]1CCCN1C[C@H](Cc1ccc(O)cc1)N1C[C@H](Cc2ccc(O)cc2)N(CC2CCCCCC2)C1=S	5379
O=C(NCc1ccc(F)cc1)OC1CC2CC1[C@H]1CCCCN1C2=O (stereo partly specified)	4446
CC(C)c1ccc(CC(=O)N2CCC2(C)C(=O)Nc2cnc3ccccc3c2)cc1 (stereo unspecified)	3560
COc1ccc(S(=O)(=O)NC(=O)C2(C)CCN2C(=O)c2ccc(C(F)(F)F)nc2C)cc1 (stereo unspecified)	2896
CC(C)COC(=O)N1CCCCC1c1cc(C(=O)NC(C)C)no1 (stereo unspecified)	3766
COc1ccc(S(=O)(=O)NC(C)c2ccc3c(c2)OCCO3)cc1 (stereo unspecified)	3701
Cc1cc(=O)oc2cc(OC(C)C(=O)N3CCOCC3)c(Cl)cc12 (stereo unspecified)	4309
Cc1cc(O)ccc1-c1cc(C(=O)NCc2ccc(F)cc2)[nH]n1	3639
CN(C)S(=O)(=O)n1cc(/C=C(\NC(=O)c2ccccc2)C(=O)N2CCCCC2)c2ccccc21	3791
NC(=O)c1cccc(Nc2nc(C(N)Cc3ccc(C(F)(F)F)cc3)cs2)n1 (stereo unspecified)	3710
O=C(Nc1ccccc1Cl)c1cc(C2CCCCN2C(=O)OCCF)on1 (stereo unspecified)	3469
O=c1[nH]c2cccc(Cl)c2c2ccccc12	3623
O=C(c1cccnc1)N1CCC2CC1c1c(Cl)cccc12 (stereo unspecified)	2820
NC(c1ccccc1)c1csc(NC(=O)Nc2cccc(C(F)(F)F)c2)n1 (stereo unspecified)	3686

Remaining list, next part
SMILES	Autofluor counter
O=C(Nc1ccc2c(c1)OCCO2)C1c2ccccc2OCC(=O)N1Cc1cccnc1 (stereo unspecified)	5834
Nc1ncncc1-c1ccc(F)cc1	3029
CCC1NC(=O)c2cc3ccccc3cc2-n2c1nc1cc(C)cc(C)c1c2=O (stereo unspecified)	2898
Cc1cc(C)c(Nc2n[nH]c(=S)s2)cc1C	3529
Cc1nc(CN(C)c2ncnc3ccc(-c4ccc5c(c4)OCO5)cc23)cs1	4121
Cc1nc(Cn2c3ccc(NC(=S)NC4CCCCC4)cc3c(=O)n2C)cs1	3924
O=C(CNC(=O)N1CC(=O)Nc2ccccc21)NCc1ccc(F)cc1	3498
CCCCC[C@H]1CCCCC[C@H](O)C[C@@H](O)[C@H](O)/C=C/C(=O)O1	6196
CCc1nc2ccc(C(=O)NCCOc3ccc(OC)cc3)cn2c1N(CCC(C)C)CCN(C)C	3371
CC1(C)CN(c2ccc(Br)cc2)C(=O)[C@H]1CC(=O)Nc1ccccc1	3433
CC(=O)C1=CCC(c2ccccc2)N(S(C)(=O)=O)C1 (stereo unspecified)	4381
COc1ccc(COC[C@H](CC(C)C)N2CCN(C(=O)c3cccc(C(F)(F)F)c3)CCC2=O)cc1	4213
COCCNc1nc(NCc2ccc(C)cc2C)c2sccc2n1	3917
O=c1[nH]c(=S)[nH]c2c1C(c1ccc(Cl)cc1)OC(CCc1ccccc1)C2 (stereo unspecified)	5425
COc1ccccc1CNC(=O)C1(C)CCN1C(=O)C1(c2ccccc2)CC1 (stereo unspecified)	3977
CCOC(=O)C1(C)CCN1C(=O)c1cc(C)n(C(C)(C)C)n1 (stereo unspecified)	2955
CC(C)NC(=O)C1(C)CCCN1C(=O)c1ccc2c(c1)C(C)(C)CCC2(C)C (stereo unspecified)	2989
COC(=O)CCCn1cc(CN2CC(N3CCN(C)CC3)CS2(=O)=O)nn1 (stereo unspecified)	4317
CC(C)(C)c1ccc(C(=O)C2CC2)cc1	3851
CCc1nc2c(OCc3ccc(F)c(F)c3)cccn2c1N(C)C(=O)CC(C)C	3928
O=C(CCC1CCN(C(=O)CC2=CCCCC2)CC1)NCc1ccc(F)cc1	3717
O=C(Nc1ccccc1)c1cc(C2CCCCN2C(=O)CCc2ccccc2)on1 (stereo unspecified)	4484
C[C@@H](NC(=O)c1ncn2c1C(=O)NC[C@@H]2C)c1ccccc1	3407
CC1(C(=O)NS(=O)(=O)c2cccc(F)c2)CCN1C(=O)Cc1cccs1 (stereo unspecified)	3865
N#CCN(C(=O)CSc1nnc(C2CC2)n1C1CC1)c1ccccc1	3251

(further entries)
SMILES	Autofluor counter
CC1(C(=O)NS(=O)(=O)c2ccc(Br)cc2)CCN1C(=O)CCC1CCCC1 (stereo unspecified)	2773
CCOc1ccccc1N(CC)C(=O)c1cc2c(s1)-c1ccccc1S(=O)(=O)C2	5676
CCS(=O)(=O)N1Cc2cc(C(=O)NCCOC)nc(-c3cccc(-c4ccncc4)c3)c2[C@H]1CCO	5320
O=C(NCc1cccnc1)c1ccc2nc([C@@H]3O[C@H](CO)[C@H](O)[C@H](O)[C@H]3O)[nH]c2c1	3587
CCC/C=C/c1ccc(CN2C(CC(C)C)C(=O)N(Cc3cn(CCOCOC)nn3)CCS2(=O)=O)cc1 (stereo unspecified)	3040
O=C(Nc1nnc([C@H]2C[C@H](O)[C@@H](CO)O2)s1)NC1CCCCC1	3772
CCOc1ccc(S(=O)(=O)N2CCCCC2)cc1NC(=O)Cc1ccc(OC)cc1	3697

Taken from above.
O=C(Nc1nnc([C@H]2C[C@H](O)[C@@H](CO)O2)s1)NC1CCCCC1 in Autofluor counter reads 3772
CCOc1ccc(S(=O)(=O)N2CCCCC2)cc1NC(=O)Cc1ccc(OC)cc1 in Autofluor counter reads 3697
CC1(C(=O)NS(=O)(=O)c2ccc(Br)cc2)CCN1C(=O)CCC1CCCC1 (stereo unspecified) in Autofluor counter reads 2773

Of the compounds above, 3 have a cyano group:
SMILES	Autofluor counter
Cc1ccsc1C(=O)N1CCC1(C)C(=O)Nc1cccc(C#N)c1 (stereo unspecified)	3644
N#Cc1cccc(N2[C@@H](Cc3cc4ccccc4n3Cc3ccccc3)COC[C@H]2Cc2ccc3ccccc3c2)c1	3576
N#CCN(C(=O)CSc1nnc(C2CC2)n1C1CC1)c1ccccc1	3251

Not all compounds are listed; count on the stated rates, not on these rows.
